Assay outcomes deposited in PubChem BioAssay by ICCB-Longwood Screening Facility, Harvard Medical School.
HCMV NEC inh: inhibitors of HCMV UL50-UL53 interaction, biochemical, HTRF; normalized percent inhibition; inhibition, % (test concentration not listed); hit rate 0.15% among 190,000;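 active = both replicates at 50% or more, plus weaker picks with an unusually low signal ratio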;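 note: stock transfer was 100 nL into about 20 µL; 0% = negative control wells and 100% = wells with untagged competitor protein; inactives centre near -12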
GIV Gai3 FP: inhibitors of GIV peptide binding to Galpha-i3, primary screen, biochemical, fluorescence polarization, FITC-GIV GBA peptide, rat Galphai3; 90 min; hits give low values; scaled: aluminum fluoride 0%, vehicle 100%; percent of control (FP), % (concentration not given with the values); hit rate 0.42% among 210,000;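 active = replicate mean at 85% of control or lower, very high polarization wells dropped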;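 note: wells of about 15 µL received 100 nL stock; the first replicate is given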
Target sequence (P08753 whole entry, looked up): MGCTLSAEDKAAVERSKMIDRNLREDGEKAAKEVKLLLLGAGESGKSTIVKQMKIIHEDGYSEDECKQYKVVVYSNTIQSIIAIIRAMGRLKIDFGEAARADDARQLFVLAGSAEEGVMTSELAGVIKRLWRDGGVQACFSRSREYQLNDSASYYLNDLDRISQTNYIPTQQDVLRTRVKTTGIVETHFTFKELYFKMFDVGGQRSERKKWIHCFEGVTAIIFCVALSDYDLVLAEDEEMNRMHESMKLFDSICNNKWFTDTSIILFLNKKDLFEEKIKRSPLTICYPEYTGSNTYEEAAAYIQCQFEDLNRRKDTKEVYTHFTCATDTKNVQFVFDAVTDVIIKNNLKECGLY
Sa growth inh: S. aureus growth inhibition at 42 and 30 °C, primary screen, LtaS inhibitor project, RN4220, two temperatures. OD600, 20 h, 42 °C; hits give low values. relative growth, % (no concentration beside the values). hit rate 0.53% among 170,000;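 active = growth at 42 °C up to 50% and 20 or more points under that at 30 °C, or under 10% at both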;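 note: 300 nL library stock went into each well; scaled to the means of positive and negative controls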
Sa growth inh second temp: also measured in Sa growth inh; calls as there; relative growth, %; measured here: growth at 30 °C;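 optical density after 20 h as mean of two plates; 100% = untreated growth and lower means inhibition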
Numbers without * were called inactive; / = not tested or not shown; & = joins results of further samples.

SMILES | HCMV NEC inh | GIV Gai3 FP | Sa growth inh | Sa growth inh second temp
CC(NC(=O)CSCc1cnn(-c2ccccc2)c1-n1cccc1)c1ccccc1 (stereo not drawn) | -15 | 100 | 94 | 84
COCCCn1c(-c2c(C)oc3ccccc23)cs/c1=N\S(=O)(=O)c1ccccc1 | -18 | / | 102 | 84
CC(C)C(C(=O)Nc1nccs1)N1C(=O)c2ccccc2C1=O (stereo not drawn) | -13 | 100 | 99 | 88
Cc1ccc(Cl)cc1N1CCN(C(=O)c2cn(C)c3ccc(S(=O)(=O)N4CCC(C)CC4)cc3c2=O)CC1 | -17 | 100 | 105 | 90
CN1CCc2c(sc3c2C(=O)NC(c2ccc(OC(=O)c4ccc(C(C)(C)C)cc4)cc2)N3)C1 (stereo not drawn) | -26 | 159 | 96 | 86
O=C1S/C(=C/c2ccccc2Cl)C(=O)N1c1ccccc1 | / | 100 | 105 | 88
CCCCNC(=O)C1CCN(c2ccc(-c3ccccc3)nn2)CC1 | -51 | 102 | / | /
COc1cccc(C(=O)Nc2c(C(=O)c3ccc(F)cc3)oc3ccccc23)c1 | -7 | 99 | 97 | 89
O=C(O)c1cnn(-c2ccccc2)c1 | -19&-7 | / | 76 | 91
COc1ccc(NCc2cc3ccc(OC)cc3n(CC(=O)Nc3cc(Cl)ccc3C)c2=O)cc1 | / | 105 | 82 | 92
COc1ccc(-n2nc3ccc(NC(=O)c4ccc(-c5ccccc5)cc4)cc3n2)cc1 | / | 104 | 96 | 106
NC(=O)CSc1nc2c(sc3ccccc32)c(=O)n1CCCN1CCOCC1 | -14 | 102 | 105 | 83
CCOC(=O)c1c(NC(=O)c2noc3c2CCCCC3)sc(C)c1C | 0 | 99 | 105 | 97
COc1cccc(NC(=O)C2CCN(C(=O)c3ccc(-c4noc(C)n4)cc3)CC2)c1 | -14 | 96 | / | /
CCOC(=O)C(Sc1nnc(C(CC)N(C)C)n1Cc1ccccc1)c1ccccc1 (stereo not drawn) | -11 | / | 116 | 90
CC(=O)c1cccc(NC(=O)c2ccc3nc(C(C)C)oc3c2)c1 | / | 103 | 81 | 82
CSc1nnc(-c2ccncc2)n1-c1ccccc1C | 2 | / | 88 | 95
c1ccc2c(c1)N1CCN2CC1 | -7 | 96 | 94 | 92
Cc1cccc(NC(=O)C2CCN(c3nc(-c4ccccc4C)no3)CC2)n1 | 0 | 100 | / | /
NC(=O)N/N=C1\CCCC1c1ccccn1 (stereo not drawn) | -34 | / | 104 | 92
O=C(O)C1CC(=O)N(CCc2ccc(Cl)cc2)C1 (stereo not drawn) | -6 | 104 | 99 | 91
COC(=O)CSc1ncnc2ccccc12 | 5 | / | 99 | 95
N#C/C(=C\c1ccc(Cl)cc1)C(=O)NCC1CCCO1 (stereo not drawn) | -51 | 106 | 104 | 81
COc1cccc(CNC(=O)C(NS(=O)(=O)c2ccc3c(c2)CCN3C(C)=O)C(C)C)c1 (stereo not drawn) | -15 | 106 | 105 | 93

Of the compounds above, 5 have an aryl methoxy group.
SMILES | HCMV NEC inh | GIV Gai3 FP | Sa growth inh | Sa growth inh second temp
COc1cccc(C(=O)Nc2c(C(=O)c3ccc(F)cc3)oc3ccccc23)c1 | -7 | 99 | 97 | 89
COc1ccc(NCc2cc3ccc(OC)cc3n(CC(=O)Nc3cc(Cl)ccc3C)c2=O)cc1 | / | 105 | 82 | 92
COc1ccc(-n2nc3ccc(NC(=O)c4ccc(-c5ccccc5)cc4)cc3n2)cc1 | / | 104 | 96 | 106
COc1cccc(NC(=O)C2CCN(C(=O)c3ccc(-c4noc(C)n4)cc3)CC2)c1 | -14 | 96 | / | /
COc1cccc(CNC(=O)C(NS(=O)(=O)c2ccc3c(c2)CCN3C(C)=O)C(C)C)c1 (stereo not drawn) | -15 | 106 | 105 | 93

(next part)
SMILES | HCMV NEC inh | GIV Gai3 FP | Sa growth inh | Sa growth inh second temp
CC(=O)Nc1ccc(-c2nc3c(Cl)cccc3[nH]2)cc1 | -10 | 103 | 135 | 118
O=C(O)CCCc1nc2cc3ccccc3cc2[nH]1 | / | 101 | 92 | 78
O=C(O)CNc1ccc(C(=O)O)cc1 | / | 98 | 125 | 94
CCOC(=O)CSc1nc2cc3c(cc2c(=O)n1CCCC(=O)NCc1ccc(OC)cc1)OCO3 | -17 | 102 | 112 | 92
Cc1cc2nc(NCC(C)O)c3ccccc3n2n1 (stereo not drawn) | -4 | / | 99 | 94
CCN(c1ccccc1)S(=O)(=O)c1ccc2c(c1)N(C(C)=O)CC(C)O2 (stereo not drawn) | -16 | 101 | 94 | 94
Cc1ccc2c(CC(=O)NCC(C)C)coc2c1 | 2 | / | 124 | 101
Cc1ccccc1NC(=O)C1C2C3CCC(C3)C12 (stereo not drawn) | -13 | 102 | 102 | 99
CC(=O)N1N=C(c2cc(-c3ccccc3)nc3ccccc23)OC1c1ccccn1 (stereo not drawn) | 14 | 101 | / | /
O=C(c1ccccc1)C1CCN(C(=O)C(F)(F)F)CC1 | 2 | 99 | 103 | 75
Cc1cc2ccccc2n1-c1ccc(C(=O)N2CCC(C(=O)NCc3ccc(Cl)cc3)CC2)s1 | / | 108 | 138 | 91
O=c1c2cnn(CCO)c2ncn1C/C=C/c1ccccc1 | -12 | 105 | 100 | 89
OC(COc1ccc(Cl)cc1)CN1CCc2ccccc2C1 (stereo not drawn) | -30 | / | 94 | 58
CCn1c(=O)[nH]c2cc(C(=O)N3CCN(c4ccccc4)CC3)ccc2c1=O | -12 | 108 | 118 | 98
CC(C)(C)c1ccc(C(=O)Nc2ccc(Cn3cnc(-c4nc(-c5ccc(F)cc5)no4)c3)cc2)cc1 | -15 | 106 | / | /
CCOC(=O)c1c(NC(=O)COc2cccc(C(F)(F)F)c2)sc2c1CCCCC2 | -55 | 100 | 99 | 88
CC(C)n1c2ccccc2c2nnc(SCC(=O)Nc3nc4c(s3)CCCC4)nc21 | -6 | 103 | 98 | 65
COc1ccc(S(=O)(=O)N2CCCCC2)cc1-c1nnc2c3ccccc3c(C)nn12 | 8 | 106 | 112 | 34
Cc1ccc(NC(=O)COC(=O)c2ccc(S(=O)(=O)NCCC#N)cc2)cc1 | -28 | / | 88 | 78
O=C(NCc1n[nH]c(=O)c2ccccc12)C(=O)NCC1CCCO1 (stereo not drawn) | -11 | 105 | / | /
O=S(=O)(c1ccc(F)cc1)c1nc(-c2ccc(F)cc2)oc1NCc1cccnc1 | -12 | 101 | / | /
COc1ccc2cc(/C=N/NC(=O)CN3CCOCC3)c(Cl)nc2c1 | -66 | 127 | 96 | 91
CC(C(=O)Nc1ccc(CN2CCOCC2)cc1)n1sc2ccccc2c1=O (stereo not drawn) | -24 | 99 | 103 | 81
Cc1c(C(=O)O)nnn1-c1ccc(Br)cc1 | -20 | 98 | / | /
CC(C)CCNC(=O)c1ccc2c(c1)N(Cc1cccc(Cl)c1)C(=O)c1ccccc1S2 | / | 96 | 99 | 91
Cn1c(-c2ccco2)[n+](C)c2ccccc21 | 18 | / | 82 | 96
COc1ccc(C2NC(=O)c3ccccc3N2)cc1 (stereo not drawn) | -11&2 | 108&99 | 95 | 90
COC(=O)c1ccccc1NC(=O)CN(c1ccccc1)S(=O)(=O)N(C)C | 5 | 110 | 85 | 91
CCCN(CCC)C(=O)C1CCCN1/C=C/C(=O)C(F)(F)F (stereo not drawn) | 12 | / | 88 | 98
COCCn1c(C)cc(O)c(C(c2ccccc2OC)N2CCN(c3ccccc3)CC2)c1=O (stereo not drawn) | / | 100 | 87 | 90
CCN(CC)c1nc2ccccc2[nH]c1=O | -7 | / | 116 | 105
N#Cc1ccc(C(=O)n2nc3c4c(cccc42)C(=O)c2ccccc2-3)cc1 | -1 | / | 88 | 98
COC(=O)c1ccc(Cn2cnc3c(nnn3-c3cc(C)cc(C)c3)c2=O)o1 | -39 | 104 | 97 | 82
Cc1cc(N2CCOCC2)c2c(N)cc(C)c(C)c2n1 | / | 100 | 95 | 80
CCOC(=O)c1c(N2C(=O)CCC2=O)sc(C)c1-c1ccccc1 | / | 97 | 91 | 85
Cc1ccc(C)c(NC(=O)Cn2cnc3nc4c(cc3c2=O)CCCC4)c1 | / | 101 | 97 | 91
CC(=O)N1CCC2(CC1)OC(=O)C(C)=C2C(=O)NCc1ccc(Cl)cc1 | -14 | 102&105 | 108 | 85
Cc1ccc(S(=O)(=O)Nc2cccc3nnc(C)cc23)cc1 | -24 | 101 | 96 | 82
CCc1ccc(NC(=O)CCc2c(C)nn3cnnc3c2C)cc1 | -20 | 103 | / | /
O=C(CSc1nc2c([nH]c3ccccc32)c(=O)n1-c1cccc(C(F)(F)F)c1)N1CCc2ccccc21 | / | 97 | 98 | 89
Cc1ccc(-c2n[nH]c3c2C(c2cccnc2)N(c2ccc(Cl)cc2)C3=O)cc1 (stereo not drawn) | -11 | 96 | / | /
CCC(=O)N1CCc2cc(S(=O)(=O)Nc3ccc(OC(F)(F)F)cc3)ccc21 | -31 | 102 | 86 | 88
C[C@@H](C(=O)OCC(N)=O)N1C(=O)C2CC=CCC2C1=O (stereo partly drawn) | -26 | / | 102 | 103
COc1ccc2c(c1)CCC/C(=N/O)C2=O | -11 | / | 108 | 89
CCN(Cc1nc2cc(Cl)ccc2c(=O)[nH]1)C(=O)c1cccc(NC(C)=O)c1 | -9 | / | 106 | 89
Cc1scc(CN2CCC3(CC2)OCCO3)c1C | / | 98 | 83 | 83
CCC(=O)N1c2ccccc2C(C)(c2ccccc2)CC1(C)C (stereo not drawn) | -33 | 105 | 70 | 57
CCc1cccc(N2C(=O)C(Cc3ccccc3)N=C2N(Cc2ccco2)C2CCCC2)c1 (stereo not drawn) | -19 | 105 | 87 | 54

Limited to HCMV NEC inh, Sa growth inh second temp and Sa growth inh (4 entries from above):
Structure	HCMV NEC inh	Sa growth inh second temp	Sa growth inh
CCc1cccc(N2C(=O)C(Cc3ccccc3)N=C2N(Cc2ccco2)C2CCCC2)c1 (stereo not drawn)	-19	54	87
Cc1ccc(S(=O)(=O)Nc2cccc3nnc(C)cc23)cc1	-24	82	96
CCC(=O)N1c2ccccc2C(C)(c2ccccc2)CC1(C)C (stereo not drawn)	-33	57	70
CCc1ccc(NC(=O)CCc2c(C)nn3cnnc3c2C)cc1	-20	/	/

Other entries.
SMILES | HCMV NEC inh | GIV Gai3 FP | Sa growth inh | Sa growth inh second temp
Cc1ccc(OCC(=O)NCc2ccccc2)cc1 | / | 103 | 91 | 82
COc1cc(Cl)c(C)cc1NC(=O)c1cnc2c(-c3cccc(C)c3)c(C)nn2c1C | / | 101 | 80 | 63
N#CCSc1ccccc1NC(=O)COC(=O)c1ccc(CN2CCCC2=O)cc1 | -24 | / | 87 | 88
O=C(Nc1ccc(Cn2cnc(-c3nc(-c4ccc(Br)cc4)no3)c2)cc1)c1ccccc1 | -37 | 103 | / | /
CNC(=O)[C@H]1O[C@@H](n2cnc3c(NCc4ccc(N)cc4)ncnc32)C(O)[C@H]1O (stereo partly drawn) | -11 | 108 | / | /
CCc1ccc(S(=O)(=O)c2cn(C)c3ccc(C)cc3c2=O)cc1 | -4 | 108 | 99 | 76
O=C1CC(N2CCN(S(=O)(=O)c3ccc(Cl)cc3)CC2)C(=O)N1CCc1ccccc1 (stereo not drawn) | 5 | / | 128 | 98
Cc1ccc(-n2ncc3c(=O)n(CC(=O)NCc4ccccc4Cl)cnc32)cc1C | / | 109 | 98 | 99
O=C(NCCN1CCCCC1)c1cc2ccc3cccnc3c2[nH]1 | -8 | 102 | / | /
CCOc1ccc(OCC(=O)NCCS(=O)(=O)N2CCN(c3ccc(OC)cc3)CC2)cc1 | / | 104 | 86 | 92
CN1CC(C(=O)O)CC1=O (stereo not drawn) | -20 | 99 | 129 | 102
Cc1cccc(C(=O)N[C@@H]2C(=O)Nc3c(c(C)nn3C)[C@H]2c2ccccc2)c1 | 7 | / | 90 | 96
O=C(CN1CCCCC1)NC(=O)NC1CCCCC1 | -28 | / | 81 | 88
CCOC(=O)N1CCN(CC(=O)NC(C)C)CC1 | -32 | / | 72 | 95
CCN=C1Cn2c(nc3scc(-c4ccccc4)c3c2=O)CN1CC | -48 | / | 88 | 78
Cc1onc(-c2c(Cl)cccc2Cl)c1NC(=O)Oc1ccc(CC#N)cc1 | 4 | 98 | 70 | 80
Cc1ccc(S(=O)(=O)N2CC3(C)CN(S(=O)(=O)c4ccc(C)cc4)CC(C)(C2)C3)cc1 | / | 98 | 85 | 88
Cc1noc(C)c1COC(=O)CCc1nc2cc(C(F)(F)F)ccc2n(Cc2ccccc2)c1=O | -18 | / | 100 | 93
Cc1ccc2c(c1)N(CC(=O)NC1CCCc3ccccc31)C(=O)c1cccnc1O2 (stereo not drawn) | -25 | 101 | 103 | 87
COc1cccc(C2=NS(=O)(=O)N(C)C(C(=O)Nc3ccn(Cc4ccccc4C)n3)=C2)c1 | 5 | 98 | / | /
CC(C)(C)c1ccc(-c2cc3ccccn3c2)cc1 | / | 108 | 88 | 82

Rows were taken by chance; about 0.85% have a hit in one of these screens.
